High-throughput results from PubChem.
PMP22 txn prim: modulators of PMP22 gene transcription in S16 Schwann cells; Potency, µM (titrated, usually from 57.5 µM), without a hit: at the top dose activity change, negative = inhibition, actives largely listed as inhibitors; S16 Pmp22-F2sN Schwann cells (luciferase reporters placed in the Pmp22 gene), FLuc/NLuc coincidence luminescence, 24 h; AID 1508649; hit rate 2% among 43,000; active = clear falling dose curves in both reporters; inconclusive = both reporters move, but less clearly or upward; inactive = either reporter flat; the % is the NLuc reporter signal; also: % is scaled to controls: 0 for no effect and ±100 for the full control effect; some results filed as inactive show a strong effect at the top dose
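Reporter cells (S16 Pmp22-F2sN, 500–1,000 per well) exposed to compounds for 24 h, 37C, 5% CO2; lysis with FLuc read after 10 min, then Stop&Glo and NLuc read after 10 min.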
HTT prom inh: inhibitors of huntingtin promoter activity; Potency, µM (titrated, usually from 57.5 µM), for the others: at the top dose activity change, negative = inhibition, actives largely listed as inhibitors; hit rate 0.93% among 48,000; HEK293 HTT promoter firefly luciferase reporter (activity 0% = vehicle and -100% = no light), 24 h; active = well fitted inhibition curve with a large enough effect; inconclusive = small, poorly fitted or top-dose-only effect; inactive = no such curve, though single readings can be large or run the other way; also: nearly all actives have a fitted effect of over 50% in size
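Quantitative HTS used concentration series of up to 57.5 uM final on HEK293 luciferase reporter cells, 24 h at 37 degrees C. Readout was Dual-Glo firefly luminescence.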
An asterisk follows results filed as active; ? = inconclusive; . = not tested or not shown; [ ] = remark or other dose. Potency is read from the fitted curve at half-maximal effect.

SMILES | PMP22 txn prim | HTT prom inh
COc1ccc(CNC(=O)c2cc(C3CC3)nc3c2c(C)nn3-c2cccc(Cl)c2C)cc1 | -23% | 2%
CCN(CC)C(=O)CSc1nc2cc3c(cc2c(=O)n1CCCCCC(=O)NCc1ccc(OC)cc1)OCO3 | ? | -12%
CCc1ccc(NC(=O)CSc2nc3c(sc4ccccc43)c(=O)n2CCCOC)cc1 | -5% | -4%
Cc1cc(-n2c(C)nc3ccccc3c2=O)ccc1NC(=O)c1ccc([N+](=O)[O-])cc1 | ? | -18%
Cc1ccc(Cl)cc1N1CCN(CCCNc2ncnc3onc(-c4ccc(Cl)cc4)c23)CC1 | 14µM* | ?
CCOc1ccc(CC(=O)NCCc2sc3nc(-c4ccc(F)cc4)nn3c2C)cc1 | -80% | ?
COc1cccc(CNC(=O)Cn2c(=O)c3cccn3c3ccc(F)cc32)c1OC | -28% | -1%
CCn1c(=O)n(CC)c2cc(N3CCCCC3)c(NC(=O)Nc3ccccc3C(F)(F)F)cc21 | ? | ?
CC(C)(C)c1ccc(C(=O)Nc2ccc(-c3nc4cc(Cl)ccc4o3)cc2)cc1 | -3% | -36%
c1ccc(CNc2nc3c(-c4ccccc4)nnn3c3ccccc23)cc1 | 1% | 34%[activator]
O=C(CSc1nccn1-c1ccc(F)cc1)Nc1nc2ccccc2s1 | -13% | -11%
CCOc1ccc(CNC(=O)c2ccc3nc(CC)c(CC)nc3c2)cc1OC | -3% | -6%
Cc1ccc(Cl)cc1Nc1nn2c(=O)c3ccc(C(=O)NC4CCC(C)CC4)cc3nc2s1 (centres undefined) | -1% | -6%
COc1cc2nc(NC(=O)c3ccc(S(=O)(=O)N4CCc5ccccc54)cc3)sc2cc1OC | -23% | 13µM*
CCOC(=O)c1c(-c2ccc(OC)c(OC)c2)csc1NC(=O)c1ccccc1F | -41% | -1%
CCOc1ccc(C(=O)Nc2ccc(NC(=O)c3ccccc3)cc2)cc1Br | ? | -2%
CCC(=O)N1CCc2cc(Br)cc(S(=O)(=O)N3CCN(c4ccc(C)cc4)C(C)C3)c21 (centres undefined) | 0% | -1%
CCc1ccc(Nc2cc(C)nc3nc(Cc4ccc(Cl)cc4)nn23)cc1 | ? | ?
CCCCOC(=O)c1ccc(-n2nnc3c(sc4nc(C)cc(C)c43)c2=O)cc1 | 2% | 16%
COc1ccc(C2CC(=O)N3CN(C4CCCCC4)CSC3=C2C#N)cc1 (centres undefined) | 4% | 7%
CCOCCc1nn2c(=O)cc(COC(=O)c3ccccc3Br)nc2s1 | -17% | 2%
CCOC(=O)c1c(C)oc2nc(C)nc(NCCc3ccc(OC)c(OC)c3)c12 | ? | 1%
COC(=O)c1c(N)n(-c2ccc(OC)c(Cl)c2)c2nc3ccccc3nc12 | ? | -3%
CCOCCCNC(=O)C(=O)Nc1c2c(nn1-c1ccccc1)CSC2 | -6% | -18%
CCCOc1ccc(C2c3c(oc4ccccc4c3=O)C(=O)N2c2ccc(C)cn2)cc1OCC (centres undefined) | 12% | 0%
CCOC(=O)N1CCc2c(sc3c2c(=O)n(-c2ccc(CC)cc2)c(=O)n3Cc2ccc(F)cc2Cl)C1 | -13% | -15%
CCOc1ccc(CNC(=O)c2cccn2-c2nnc(N3CCCCC3)s2)cc1OC | -34% | -24%
CN1CCN(CC(=O)N2c3ccccc3C(=O)Nc3cccnc32)CC1 | . | -3%[6.01 µM]
Cc1cccc(N(C)C(CNS(=O)(=O)c2ccccc2)c2ccccc2)c1 (centres undefined) | ? | ?
CC1=C(c2ccc(Cl)cc2)S(=O)(=O)N=C1N1CCN(c2cc(C)ccc2C)CC1 | 0% | -25%
CC(C)Oc1ccc(CNC(=O)Cc2ccc(NC(=O)N3CCSc4ncccc43)cc2)cc1 | -11% | ?
CCN(CC)CCCCNc1ncc2c(n1)N(C)C(=O)N(c1c(Cl)c(OC)cc(OC)c1Cl)C2 | . | -14%
CCOC(=O)C=C[C@H](C[C@@H]1CCNC1=O)NC(=O)[C@@H](CC(=O)[C@@H](NC(=O)c1cc(C)on1)C(C)C)Cc1ccc(F)cc1 | . | 9%
CCOc1ccc(CNC(=O)CCCn2c(=O)c3cccn3c3ccc(F)cc32)cc1 | ? | 0%
CCCCNC(=O)CCc1c(C)nc2cc(-c3ccccc3)nn2c1C | 0% | 2µM*
COc1ccc(-c2nc3ccccc3o2)cc1NC(=O)COc1ccc(C(C)(C)C)cc1 | -72% | 9%
CCOC(=O)c1ccc(N2C(=O)c3n[nH]c(-c4cccs4)c3C2c2ccc(C)cc2)cc1 (centres undefined) | ? | 1%
C[N+](C)(C)CCOC(N)=O | . | 2%
O=C(Cn1c(=O)oc2cc(S(=O)(=O)N3CCCC3)ccc21)NCc1ccc(F)cc1 | ? | -30%
COc1ccccc1NC(=O)C1=C(C)Nc2nc(SCc3ccccc3)nn2C1c1cccc(O)c1 (centres undefined) | -6% | ?
O=C(Nc1nc2ccc(F)cc2s1)c1nc(S(=O)(=O)Cc2ccccc2F)ncc1Cl | 9.5µM* | ?
COc1ccc(OC)c(CNc2ncnc3onc(-c4ccc(Cl)cc4)c23)c1 | ? | ?
CCC(C)n1c(SCc2c(F)cccc2Cl)nc2ccsc2c1=O (centres undefined) | ? | ?
Cc1sc2c(c1C)c(=O)n(-c1cccc(C(F)(F)F)c1)c(=O)n2Cc1ccc(F)cc1 | ? | -16%
O=C(Nc1ccc(Cl)cc1Cl)c1cc(S(=O)(=O)NCc2ccc3c(c2)OCO3)ccc1F | 0% | -29%
Cc1c2oc3c(C)ccc(C(=O)NC4C(=O)NC(C(C)C)C(=O)N5CCCC5C(=O)N(C)CC(=O)N(C)C(C(C)C)C(=O)OC4C)c3nc-2c(C(=O)NC2C(=O)NC(C(C)C)C(=O)N3CCCC3C(=O)N(C)CC(=O)N(C)C(C(C)C)C(=O)OC2C)c(N)c1=O (centres undefined) | . | -40%
CSc1ccc(CCNC(=O)CCn2c(=O)c3cccn3c3ccc(F)cc32)cc1 | -24% | -5%
Cc1ccc(NC(=O)CCc2c(C)nc3nc(C)nn3c2C)c(Cl)c1 | 5% | -12%
Cc1ccccc1Cn1ccn(-c2ccc(F)c(F)c2)c(=O)c1=O | -6% | -3%
Cc1ccc(C(=O)Nc2c(-c3ccccc3)nc3ccccn23)cc1C | -21% | -8%

(listing goes on)
SMILES | PMP22 txn prim | HTT prom inh
CC1CCN(c2nc(-c3ccc(Br)cc3)nc3ccccc23)CC1 | 8% | -8%
COCCCNC(=O)C1CCN(Cc2cc3ccccc3n2Cc2cccc(Cl)c2)CC1 | ? | -5%
CCOc1ccc(OCC)c(NC(=O)c2ccc(-c3ccccc3)s2)c1 | -17% | 6%
COc1ccc(CCNC(=O)CCCCCn2c(SCC(N)=O)nc3cc4c(cc3c2=O)OCO4)cc1OC | ? | -15%
CCN(CC)c1ccc2cc(-c3nnc(-c4cccc(Cl)c4)o3)c(=O)oc2c1 | -14% | 37%[activator]
CCOc1ccc(CCNC(=O)c2cc3cc4ccc(OC)cc4nc3s2)cc1OCC | -10% | -3%
Cc1ccc(CCNC(=O)c2ccc(CNS(=O)(=O)c3ccc(F)cc3)cc2)cc1 | 4% | 7%
CC1CCN(C(=O)Cn2cc(SCC(=O)NCc3ccc(F)cc3)c3ccccc32)CC1 | ? | -19%
Cc1cc(C)n(C(C)CC(=O)NCc2ccc(Cl)cc2)n1 (centres undefined) | 1% | -2%
COC(=O)c1cc2sccc2n1Cc1nc(-c2ccc(C)cc2)oc1C | 18% | -37%
COCCNC(=O)CCCn1c(=O)c2cc(OC)c(OC)cc2n(CC(=O)Nc2ccc(F)cc2)c1=O | -12% | -10%
CCC(C(=O)NC(=O)NC(C)=O)c1ccccc1 (centres undefined) | . | -5%
Cc1ccc(CNC(=O)c2ccc(Cn3c(SCc4ccccc4F)nc4cccnc43)cc2)cc1 | -60% | ?
COc1ccccc1CNc1ccc(-c2nc(C(C)C)no2)cc1[N+](=O)[O-] | ? | -10%
CC(C)CCn1c(Oc2ccccc2F)nc2c1c(=O)n(C)c(=O)n2C | ? | ?
CCOc1ccc(C(=O)Nc2ccc(OCc3cc(=O)n4cccc(C)c4n3)cc2)cc1 | 4% | -10%
O=C(NCc1ccc(Cl)cc1)C(=O)NCC(c1cccs1)S(=O)(=O)c1cccs1 (centres undefined) | -23% | ?
Cc1ccc([C@@H]2O[C@H](CO)[C@@H](O)[C@H](O)[C@@H]2O)cc1Cc1ccc(-c2ccc(F)cc2)s1 | . | -15%
O=C(Nc1ccccc1)N(Cc1cccs1)c1ccc(Cl)cc1 | 0% | -13%
Cc1ccc(OCC(=O)Nc2cccc(OCc3cc(=O)n4ccccc4n3)c2)cc1C | -13% | 38%[activator]
COc1ccccc1N1CCN(c2ncnc3c2cnn3-c2cccc(Cl)c2)CC1 | -8% | -6%
Cc1ccc2ncc3c(-c4ccc(F)cc4)nn(CC(=O)Nc4ccccc4C)c3c2c1 | 0% | 1%
COc1ccc(C(C)NC(=O)CN(c2cc(OC)ccc2OC)S(=O)(=O)c2ccccc2)cc1 (centres undefined) | -18% | -17%
Cc1ccc(NC(=O)CN2C(=O)COc3ccc(S(=O)(=O)NC4CCCC4)cc32)cc1N(C)C | -13% | -19%
CCOC(=O)c1sc(NC(=O)c2nc3nc(C)cc(C(F)F)n3n2)c(C(=O)OC(C)C)c1C | -37% | -1%
NC(=O)c1ccc2nc(-c3ccc(Oc4ccc(Cl)cc4)cc3)[nH]c2c1 | . | -4%
CC(C)n1c(SCC(=O)Nc2ccc(F)cc2)nc2c(oc3ccccc32)c1=O | ? | 2%
Cc1cc2nc(-c3ccc(NC(=O)c4ccccc4F)cc3)oc2cc1C | -20% | 27%
Nc1cc(=O)nc(SCC(=O)Nc2ccc(F)cc2)n1-c1ccccc1Cl | -9% | -31%[11.5 µM]
O=C(CS(=O)(=O)c1cccc2nsnc12)N1CCN(c2ccccc2F)CC1 | -17% | 8%
Cc1ccccc1Cn1c(=O)n(CCCCC(=O)NCc2ccccc2Cl)c(=O)c2ccccc21 | -29% | -9%
CC(=O)Nc1ccccc1-c1nc2ccccc2n(C(C)C(=O)c2ccc(C)c(C)c2)c1=O (centres undefined) | ? | 0%
Cc1ccc(CNC(=O)CCCCCn2c(=O)c3sccc3n(CC(=O)N(C)c3ccccc3)c2=O)cc1 | ? | -12%
Cc1ccccc1C(=O)Nc1cc(C)c(O)c(-c2nc3ccccc3o2)c1 | -22% | -10%
Clc1ccccc1CNc1ncnc2c1c(-c1ccccc1)cn2-c1ccccc1 | -6% | -27%
O=C(CSc1nccn1-c1cccc(Cl)c1)Nc1cccc(C(F)(F)F)c1 | ? | ?
CCc1ccc(NC(=O)c2cc(=O)c3ccc(C)c(C)c3o2)cc1 | 16µM* | ?
CCC(C(=O)Nc1ccccc1C(=O)OC)n1nc(C)c2c(C)n(-c3ccc(C)cc3)nc2c1=O (centres undefined) | ? | ?
Cc1ccccc1C(=O)Nc1c(C)nc2ccccn2c1=O | 7% | 6%
Cc1ccc(Nc2c(-c3ccc(C)cc3)nc3c(C)cccn23)cc1 | 5% | -13%
C/C(=N/NC(=O)c1ccncc1)C(=O)O | . | 4%
COC(=O)c1ccccc1NC(=O)Cn1c(=O)n(-c2cccc(OC)c2)c(=O)c2c(C)c(C(=O)N(C)C)sc21 | -10% | 4%
Cc1ccc(NC(=O)CSc2nc3c(c(=O)[nH]2)CN(Cc2ccc4c(c2)OCO4)CC3)cc1C | -23% | -9%
O=S(=O)(NCC(c1cccs1)S(=O)(=O)c1ccccc1)c1ccc(F)c(C(F)(F)F)c1 (centres undefined) | ? | ?
CCOC(=O)c1ccc(NC(=O)c2ccc3c(c2)CCN3S(=O)(=O)c2ccc(Cl)cc2)cc1 | 2% | ?
CN(C)c1ccc(C(CNS(=O)(=O)c2ccc(Cl)cc2)N2CCOCC2)cc1 (centres undefined) | -11% | -24%
COCCNC(=O)CCc1c(C)nc2c(c(C)nn2-c2ccc(C)cc2)c1C | -16% | -8%
O=C(CSc1nc(=O)n(Cc2ccco2)c2c1CCC2)Nc1cccc(F)c1 | 5% | ?
CCC1CCCCN1CCCNC(=O)c1sc2nc(C)cc(C)c2c1-n1cccc1 (centres undefined) | -18% | 1%
Cc1ccc(N2C(=O)CSC23C(=O)N(Cc2ccccc2F)c2ccccc23)cc1F (centres undefined) | ? | 25µM*

Compound profiles, as listed above.
Results for `CCc1ccc(NC(=O)c2cc(=O)c3ccc(C)c(C)c3o2)cc1` → PMP22 txn prim = 16µM*; HTT prom inh = ?
Results for `COCCNC(=O)CCc1c(C)nc2c(c(C)nn2-c2ccc(C)cc2)c1C` → PMP22 txn prim = -16%; HTT prom inh = -8%
Results for `Cc1ccc(CNC(=O)CCCCCn2c(=O)c3sccc3n(CC(=O)N(C)c3ccccc3)c2=O)cc1` → PMP22 txn prim = ?; HTT prom inh = -12%
